Screening data from PubChem BioAssay.
Tau fibril FP: inhibitors of human tau fibril formation; Potency, µM (top dose mostly 57.7 µM), for the others: top-dose activity, negative = inhibition, most hits filed as inhibitors; 280,000 tested, 0.39% active; K18 P301L tau heparin fibrillization, Alexa594 FP, 6 h; P10636; note: nearly all actives have a fitted effect of over 55% in size
Target sequence (P10636 561-689 P618L limits assumed): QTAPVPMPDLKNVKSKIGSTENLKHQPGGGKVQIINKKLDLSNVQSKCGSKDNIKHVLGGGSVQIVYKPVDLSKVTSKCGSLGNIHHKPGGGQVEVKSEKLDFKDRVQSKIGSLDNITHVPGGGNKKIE
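Heparin (20 uM) drove fibril formation of recombinant tau K18 P301L, 15 uM unlabeled with 0.24 uM Alexa 594 label, for 6 hr at 37 C in 100 mM sodium acetate pH 7. Fluorescence polarization (555/632 nm) read 1 hr after 30 uM ThT.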
ALDH1A1 block: ALDH1A1 (human) enzyme inhibition; P00352; Purified ALDH1A1, NADH fluorescence, propionaldehyde substrate; Potency, µM (series often up to 75.3 µM), inactives show at the top dose activity, negative = inhibition, hits mostly inhibitors; 220,000 tested, 7.3% active; AID 1030; active = well fitted inhibition curve with a large enough effect, not every such curve was filed as active; inconclusive = small, poorly fitted or top-dose-only effect, or another doubt; inactive = no such curve, though single readings can be large or run the other way;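 note: plate controls were no enzyme wells and a reference inhibitor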
Target sequence (P00352 whole entry, looked up): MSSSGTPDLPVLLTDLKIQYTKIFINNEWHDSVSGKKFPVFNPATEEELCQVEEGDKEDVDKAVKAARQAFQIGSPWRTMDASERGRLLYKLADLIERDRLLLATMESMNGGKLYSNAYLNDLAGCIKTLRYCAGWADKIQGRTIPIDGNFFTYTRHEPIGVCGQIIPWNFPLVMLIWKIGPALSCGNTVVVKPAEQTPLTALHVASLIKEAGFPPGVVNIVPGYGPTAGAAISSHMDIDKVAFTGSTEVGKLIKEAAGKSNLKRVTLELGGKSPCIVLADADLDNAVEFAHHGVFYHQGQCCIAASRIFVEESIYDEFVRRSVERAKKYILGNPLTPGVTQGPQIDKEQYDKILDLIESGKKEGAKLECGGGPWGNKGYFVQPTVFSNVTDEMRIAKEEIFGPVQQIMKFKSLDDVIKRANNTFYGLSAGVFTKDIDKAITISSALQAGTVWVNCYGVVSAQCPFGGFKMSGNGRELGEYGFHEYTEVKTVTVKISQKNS
Tau fibril ThT: inhibitors of human tau fibril formation, thioflavin T binding. recombinant tau K18 P301L, heparin-induced fibrillization, ThT fluorescence. Potency, µM (series often up to 57.4 µM), inactives show at the top dose activity, negative = inhibition, usual class: inhibitors. 270,000 tested, 2.1% active; note: nearly all actives have a fitted effect of over 55% in size
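In this qHTS, human K18 P301L tau is incubated with compound and heparin for 6 hr at 37 C, and Thioflavin T fluorescence then reports fibril load.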
TRb SRC2 PPI: TRbeta-SRC2 interaction inhibition; P10828; TRbeta-SRC2 peptide binding, fluorescence polarization; receptor liganded with 1 µM T3; Potency, µM (highest dose often 106 µM), without a hit: at the top dose activity change, negative = inhibition, actives largely listed as inhibitors; 280,000 tested, 0.065% active; AID 1469;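 note: plate controls were bound peptide for no effect and peptide without receptor for full effect; nearly all actives have a fitted effect of over 50% in size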
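Decrease in fluorescence polarization of 20 nM Texas Red SRC2 coactivator peptide flagged inhibition of its binding to 0.6 uM TRb LBD; 1 uM T3 included, incubation 5 hr, ex 555/em 632 nm.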
TR SRC2 fluor cs: Texas Red fluorescence interference in TRb-SRC2 counter-screen; TRb/SRC2 Texas Red total fluorescence interference; 280,000 tested, 0.29% active; Potency, µM (series often up to 106 µM), for inactives: at the highest dose fluorescence change, negative = quenching; AID 1479; active = well fitted curve in either direction with a large enough effect; inconclusive = small, poorly fitted or top-dose-only effect
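Flags fluorescent or light-absorbing compounds by total fluorescence, S + 2P, at 555 nm excitation and 632 nm emission. Mixture: 20 nM Texas Red SRC2 peptide, 0.6 uM human TRb LBD, 1 uM T3, 5% DMSO; compound exposure 5 h at ambient temperature.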
Tau fluor cs: counter-screen for tau fibril formation inhibitors; tau K18 P301L Alexa594 fluorescence, heparin fibrillization; Potency, µM (titrated, usually from 57.7 µM), without a hit: at the highest dose activity change, negative = decrease; 280,000 tested, 0.93% active; AID 1463; note: nearly all actives have a fitted effect of over 55% in size
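Human tau K18 P301L (15 uM unlabeled, 0.24 uM Alexa 594-labeled) in 100 mM sodium acetate pH 7 with 20 uM heparin, 6 hr at 37 C. ThT 30 uM added, 1 hr ambient; Alexa 594 FP and total fluorescence read at 555/632 nm.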
GLA spleen mod: inhibits or activates alpha-galactosidase in human spleen homogenate. P06280. human spleen homogenate, 4MU-alpha-Gal fluorescence, 40 min. Potency, µM (highest dose often 80 µM), inactives show at the top dose activity change, negative = inhibition, usual class: inhibitors. 240,000 tested, 0.008% active. AID 2107;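 note: 0% = enzyme with vehicle and -100% = no enzyme basal signal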
Target sequence (P06280 32-429 limits assumed): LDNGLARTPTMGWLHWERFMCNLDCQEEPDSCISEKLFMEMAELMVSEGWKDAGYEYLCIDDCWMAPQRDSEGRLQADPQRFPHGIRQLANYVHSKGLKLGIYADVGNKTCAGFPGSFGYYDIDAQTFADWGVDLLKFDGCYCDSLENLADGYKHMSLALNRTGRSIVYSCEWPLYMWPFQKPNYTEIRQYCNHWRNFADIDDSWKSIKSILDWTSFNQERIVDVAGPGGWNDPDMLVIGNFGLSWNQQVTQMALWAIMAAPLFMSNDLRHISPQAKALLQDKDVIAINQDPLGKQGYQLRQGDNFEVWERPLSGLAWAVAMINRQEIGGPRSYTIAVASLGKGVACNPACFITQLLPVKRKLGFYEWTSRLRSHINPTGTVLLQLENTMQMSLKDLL
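Spleen homogenate 1 ug + cpd (titration) + 4-MU-alpha-D-galactopyranoside 1 mM; 37C 40 min; 50 mM citrate/phosphate pH 5.0, 0.01% Tween-20; stop pH 10; fluorescence 365/440; AC50 via Hill.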
* hit, by the source's call; ? = inconclusive; . = not tested or not shown; [ ] = dose if it differs, or a comment. Unless noted, calls come from the whole dose curve; as a rule, active = well fitted curve in the direction sought with a large enough effect; inconclusive = small, poorly fitted or top-dose-only effect, or another doubt; inactive = no such curve, though single readings can be large; an effect the other way counts as inactive or inconclusive. Unless noted, % is set by controls: 0 for no effect and ±100 for the full control effect; potency is the fitted concentration of half-maximal effect. Not all compounds are listed; rates above refer to the full screens.

cpd	canonical_smiles	Tau fibril FP	ALDH1A1 block	Tau fibril ThT	TRb SRC2 PPI
1	COc1ccc(NC(=O)C2(c3ccc(NC(=O)c4ccc(OC(C)=O)cc4)cc3)CCCC2)cc1	?	-7%	-8%	-14%
2	O=C(NNc1nc(-c2ccccc2)cs1)c1ccccc1	11%	?	?	7%
3	O=C(Nc1ccc2nn(-c3ccccc3)nc2c1)c1ccco1	15%	1%	10%	-6%
4	O=C(Nc1nnc(-c2ccco2)s1)c1ccccc1	-2%	25µM*	-10%	-4%
5	COC(=O)c1ccc(C(=O)Nc2nnc(-c3cccnc3)o2)cc1	-1%	-2%	-4%	-13%
6	O=[N+]([O-])c1ccccc1/C=N/n1c(COc2ccccc2)n[nH]c1=S	-2%	16µM*	?	5%
7	CCN(CC)C(=O)CSc1nc(C)cc(C)n1	-5%	3%	-6%	0%
8	C/C(=N\NC(=O)c1ccccc1[N+](=O)[O-])c1c(O)cc(C)oc1=O	2%	?	-8%	1%
9	CN(C)c1ccc(O)c2c1C[C@H]1C[C@H]3[C@@H](N(C)C)C(=O)C(C(N)=O)=C(O)[C@]3(O)C(=O)C1=C2O	.	-6%[20.9 µM]	.	-2%[53 µM]
10	CCOC(=O)/C(=N\O)C1=NC(C)(C)Cc2ccccc21	5%	12%	-5%	-10%
11	O=C(Nc1ccccc1)N1C(=O)C2(OCCO2)c2ccccc21	-8%	11%	-14%	1%
12	Cc1cccc(C)c1Nc1nnc(SCC(=O)NC(=O)c2cccn2C)s1	11%	-4%	-12%	-2%
13	CCSc1ccccc1C(=O)Nc1cc(C)on1	-4%	5%	-4%	-24%
14	Cc1cccc(C)c1NC(=O)CSc1nnc(-c2ccco2)n1N	-4%	?	0%	8%
15	O=S(=O)(Nc1ccc2cn[nH]c2c1)c1ccc(Cl)s1	4%	-2%	-6%	-2%

cpd	TR SRC2 fluor cs	Tau fluor cs	GLA spleen mod
1	-1%	-2%	0%
2	-6%	-26%	-1%
3	-5%	5%	18%
4	-3%	-6%	?
5	0%	4%	-4%
6	-5%	?	3%
7	-1%	-1%	1%
8	0%	-1%	-8%
9	-3%[53 µM]	.	3%[29.1 µM]
10	2%	-6%	-5%
11	-4%	-2%	1%
12	1%	-10%	0%
13	-5%	4%	-18%
14	0%	-1%	9%
15	-3%	-14%	3%

Remaining list, next part.
cpd	canonical_smiles	Tau fibril FP	ALDH1A1 block	Tau fibril ThT	TRb SRC2 PPI
16	COc1ccc(-c2cc3ccccc3oc2=O)cc1NC(=S)NC(=O)c1ccc2c(c1)OCCO2	-5%	?	4%	.
17	CC(Sc1nc(-c2ccccc2)cc(C(F)(F)F)n1)C(=O)Nc1ccc2c(c1)OCO2 (stereo unspecified)	-5%	5%	3%	2%
18	CCC(=O)Nc1nc2ccccc2n1CCN(CC)CC	-3%	-9%	-2%	-5%
19	CCCCN=CC1=C(O)C(C(=O)OC)C(C)(C)CC1=O (stereo unspecified)	1%	-6%	0%	1%
20	COC(=O)/C=C1\S/C(=N/N=C/c2ccccc2)NC1=O	5%	1%	?	-7%
21	Cc1ccc(NS(=O)(=O)c2cccc(C(=O)OCC(=O)NCc3ccco3)c2)cc1	2%	-12%	-2%	7%
22	CCc1ccccc1OCCCCN1CCCC1	2%	-12%	-5%	2%
23	Cc1ccc(NC(=O)CN2C(=O)N/C(=C/c3cccn3-c3ccc(C(=O)O)cc3)C2=O)cc1	4%	-8%	-8%	5%
24	COc1ccc(OCC(O)CNS(=O)(=O)c2cccc(Cl)c2)cc1 (stereo unspecified)	0%	10µM*	1%	8%
25	COc1cc(NC(=O)c2ccccc2)c(OC)cc1NC(=O)Cc1cccs1	4%	?	?	9%
26	O=C(O)CCNc1cc2ccccc2cc1C(=O)O	?	?	16µM*	-4%
27	O=C(COC(=O)c1ccco1)NCc1ccco1	-7%	3%	-5%	3%
28	Cc1cccc(Nc2nc(-c3ccccc3)c(C(=O)Nc3cccnc3)s2)c1	?	?	?	-3%
29	Cc1nn(C)c(C(=O)NNC(=S)NCc2ccco2)c1Cl	-9%	1%	-3%	-24%
30	Cc1ccc(C)c2nc(SCC(=O)N3CCCc4ccccc43)c(C#N)cc12	-9%	?	-4%	6%

cpd	TR SRC2 fluor cs	Tau fluor cs	GLA spleen mod
16	.	-18%	5%
17	-1%	-23%	-7%
18	-10%	4%	-1%
19	4%	3%	0%
20	-3%	-10%	-15%
21	0%	-6%	-1%
22	2%	4%	-14%
23	-13%	-5%	0%
24	-5%	-4%	7%
25	?	?	-13%
26	-2%	-25%	1%
27	2%	-3%	6%
28	-2%	?	3%
29	-3%	-1%	2%
30	0%	-10%	-1%

Continued:
cpd	canonical_smiles	Tau fibril FP	ALDH1A1 block	Tau fibril ThT	TRb SRC2 PPI
31	O=C(COC(=O)c1cn(-c2ccccc2)nc1-c1ccccc1)c1ccc([N+](=O)[O-])cc1	?	5%	-9%	-2%
32	COC(=O)c1ccccc1NC(=O)COC(=O)[C@H](C)NC(N)=O	-10%	?	-4%	0%
33	COc1ccc(/C=C/C(=O)c2cc(F)ccc2OC(=O)c2ccccc2C)cc1OC	9%	6%	-18%	3%
34	COc1cc(CC(=O)O)c(C(C)=O)cc1OC	-4%	6%	7%	-3%
35	c1ccc(-c2nc(CSc3n[nH]c(-c4cccs4)n3)cs2)cc1	?	?	-17%	-18%
36	O=C(c1cc(-c2ccco2)on1)N1CCc2ccccc2C1	5%	7.9µM*	?	13%
37	Cc1cccc(Nc2ncnc3ccccc23)c1	-8%	-4%	-18%	-11%
38	C/C(N)=C(/C#N)C(=O)CSc1nnc(Nc2cccc(C)c2)s1	3%	-4%	-15%	5%
39	O=C(/C=C/c1ccccc1)NCc1ccco1	8%	6µM*	-6%	5%
40	CCOC(=O)c1c(NC2OC(=O)c3c2ccc(OC)c3OC)sc(C(=O)OC(C)(C)C)c1C (stereo unspecified)	-2%	-6%	?	14%
41	O=C(O)c1cccc(-c2ccc(/C=N/NC(=O)c3cccnc3)o2)c1	3%	?	?	0%
42	CCOC(=O)c1ccc(-c2ccc(C=O)o2)cc1	-6%	.	?	-5%
43	C/C(CC(C)C)=N\Oc1nc(C)cc(C)n1	7%	.	-1%	1%
44	CN=C1S/C(=C\c2ccc(Sc3ccc(Cl)cc3)o2)C(=O)N1C	1%	6%	6%	8%
45	CCOc1cc2c(cc1OCC)C(C(=O)O)C(c1ccc(OC)c(O)c1)N(C)C2=O (stereo unspecified)	-7%	-8%	-7%	-17%

cpd	TR SRC2 fluor cs	Tau fluor cs	GLA spleen mod
31	-4%	?	-1%
32	0%	-8%	2%
33	0%	0%	-6%
34	-2%	2%	-9%
35	2%	?	4%
36	-3%	-14%	-7%
37	-6%	-8%	-4%
38	-7%	-20%	-1%
39	5%	-7%	-1%
40	0%	-13%	-7%
41	-1%	-3%	0%
42	-2%	-18%	4%
43	1%	0%	4%
44	1%	5%	-8%
45	2%	-11%	-2%

Quoted at random: 4 compounds from above.
cpd	canonical_smiles	Tau fibril FP	ALDH1A1 block	Tau fibril ThT	TRb SRC2 PPI
39	O=C(/C=C/c1ccccc1)NCc1ccco1	8%	6µM*	-6%	5%
44	CN=C1S/C(=C\c2ccc(Sc3ccc(Cl)cc3)o2)C(=O)N1C	1%	6%	6%	8%
31	O=C(COC(=O)c1cn(-c2ccccc2)nc1-c1ccccc1)c1ccc([N+](=O)[O-])cc1	?	5%	-9%	-2%
34	COc1cc(CC(=O)O)c(C(C)=O)cc1OC	-4%	6%	7%	-3%

cpd	TR SRC2 fluor cs	Tau fluor cs	GLA spleen mod
39	5%	-7%	-1%
44	1%	5%	-8%
31	-4%	?	-1%
34	-2%	2%	-9%

Next section:
cpd	canonical_smiles	Tau fibril FP	ALDH1A1 block	Tau fibril ThT	TRb SRC2 PPI
46	CN(C)c1oc(/C=C/c2ccccc2)nc1C#N	8%	?	?	0%
47	Cc1sc2ncnc(Sc3nnc4sc5ccccc5n34)c2c1C	2%	?	-3%	3%
48	Cc1ccc(-c2nc(CN(C)C3CCOCC3)c(C)o2)s1	8%	?	-5%	4%
49	O=C(CN1C(=O)c2ccccc2S1(=O)=O)NCc1ccc2c(c1)OCO2	10%	?	-2%	1%
50	COc1ccc(Nc2ncccc2C(=O)Nc2ccccc2)cc1	-4%	?	-4%	3%
51	CC(C)Oc1cccc(C(=O)NC(=S)Nc2ccc3c4c(cccc24)CC3)c1	-6%	-8%	-13%	0%
52	COC(=O)c1c(NC(=O)c2ccoc2C)sc2c1CCC2	-6%	?	?	-5%
53	COc1ccccc1NC(=O)C1=C(C)Nc2nnnn2C1c1cccc(Br)c1 (stereo unspecified)	5%	-6%	1%	-8%
54	O=C(Nc1nc(-c2ccco2)cs1)c1ccccc1	0%	?	?	-8%
55	Cc1cccc(/C=N/n2c(-c3ccccn3)n[nH]c2=S)c1	-7%	?	-15%	3%
56	COc1ccc(-c2cc(-c3n[nH]c(=S)n3-c3cc(OC)ccc3OC)[nH]n2)cc1	2%	20µM*	-9%	0%
57	c1ccc(-c2noc(-c3cccnc3)n2)nc1	5%	-5%	-1%	-17%
58	CC(C)CC(C(=O)N1CCOCC1)N1Cc2ccccc2C1=O (stereo unspecified)	12%	-3%	6%	-8%
59	O=C(/C=C/c1ccc(F)cc1)NCc1ccco1	6%	-3%	11%	2%
60	COc1ccc(CNc2nc3nc4c(c(=O)n3[nH]2)CCC4)cc1	5%	13%	-1%	-1%
61	CC(C)(O[C@@H]1O[C@H](CO)[C@@H](O)[C@H](O)[C@H]1O)[C@H]1Cc2cc3ccc(=O)oc3cc2O1	3%	?	5%	0%
62	COc1ccccc1COC(=O)N/C=C/c1ccco1	?	?	?	5%
63	COC(=O)COc1cccc(NC(=O)COc2ccccc2)c1	5%	3%	-14%	-5%

cpd	TR SRC2 fluor cs	Tau fluor cs	GLA spleen mod
46	-2%	-21%	?
47	-7%	1%	1%
48	-9%	-1%	-6%
49	-2%	-2%	4%
50	-1%	-4%	-7%
51	-5%	-9%	26%
52	1%	-7%	1%
53	-4%	-8%	1%
54	-6%	-13%	-2%
55	-6%	-10%	0%
56	-3%	-7%	-3%
57	-3%	4%	-5%
58	-7%	15%	1%
59	-2%	8%	0%
60	0%	2%	-8%
61	0%	2%	4%
62	1%	-20%	2%
63	1%	4%	-3%

Only TR SRC2 fluor cs (2 entries from above):
entry	Structure	TR SRC2 fluor cs
54	O=C(Nc1nc(-c2ccco2)cs1)c1ccccc1	-6%
49	O=C(CN1C(=O)c2ccccc2S1(=O)=O)NCc1ccc2c(c1)OCO2	-2%
